Compound activity deposited in PubChem BioAssay by National Center for Advancing Translational Sciences (NCATS).
NPR1 antag = Natriuretic polypeptide receptor (hNpr1) antagonism - Primary qHTS. 1.6% of 76,000 active. Potency, µM (doses to about 46.3 µM), for inactives: at the highest dose activity change, negative = inhibition, most hits filed as inhibitors. HEK293 hNpr1 GloSensor cGMP, ANP-stimulated luminescence. Atrial natriuretic peptide receptor 1 (Homo sapiens), P16066; active = well fitted inhibition curve with a large enough effect; inconclusive = small, poorly fitted or top-dose-only effect; inactive = no such curve, though single readings can be large or run the other way;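 note: nearly all actives have a fitted effect of over 60% in size; nearly all hits also lower the signal before the agonist is added; a reference antagonist and vehicle were the controls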
Target sequence (P16066 whole entry, looked up): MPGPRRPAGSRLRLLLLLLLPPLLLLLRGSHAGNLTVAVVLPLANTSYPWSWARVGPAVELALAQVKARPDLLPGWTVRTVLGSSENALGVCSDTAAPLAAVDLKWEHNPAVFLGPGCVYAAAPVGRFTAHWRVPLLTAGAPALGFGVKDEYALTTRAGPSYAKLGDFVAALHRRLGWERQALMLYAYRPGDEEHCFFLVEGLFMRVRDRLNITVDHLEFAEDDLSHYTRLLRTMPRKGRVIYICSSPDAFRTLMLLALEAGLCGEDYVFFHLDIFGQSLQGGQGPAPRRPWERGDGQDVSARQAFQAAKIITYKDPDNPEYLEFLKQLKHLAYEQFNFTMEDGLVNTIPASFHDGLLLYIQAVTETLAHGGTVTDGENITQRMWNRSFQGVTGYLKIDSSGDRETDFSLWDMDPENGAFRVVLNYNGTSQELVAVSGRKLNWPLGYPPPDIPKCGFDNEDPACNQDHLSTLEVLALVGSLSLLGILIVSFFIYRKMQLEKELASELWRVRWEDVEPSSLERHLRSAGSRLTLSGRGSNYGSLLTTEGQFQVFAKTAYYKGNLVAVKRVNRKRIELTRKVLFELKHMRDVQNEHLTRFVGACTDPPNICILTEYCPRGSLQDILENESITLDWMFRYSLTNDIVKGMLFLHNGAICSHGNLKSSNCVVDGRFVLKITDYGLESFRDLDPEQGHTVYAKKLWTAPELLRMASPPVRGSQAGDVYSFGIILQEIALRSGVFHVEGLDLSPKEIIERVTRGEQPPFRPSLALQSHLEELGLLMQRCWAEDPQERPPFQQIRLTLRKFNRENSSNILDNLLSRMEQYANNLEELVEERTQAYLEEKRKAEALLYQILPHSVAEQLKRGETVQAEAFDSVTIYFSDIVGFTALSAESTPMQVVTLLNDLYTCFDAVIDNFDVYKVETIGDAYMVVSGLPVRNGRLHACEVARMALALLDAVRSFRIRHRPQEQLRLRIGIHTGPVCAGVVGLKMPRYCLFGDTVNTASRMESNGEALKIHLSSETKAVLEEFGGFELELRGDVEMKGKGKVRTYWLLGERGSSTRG
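HEK293 cells stably expressing human Npr1 and cGMP GloSensor pGS-40F, loaded 2 h with 2% GloSensor reagent, given compound 30 min at room temperature. Luminescence read before and 20 min after 0.1 nM hNppA.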
* = called active by the depositor; ? = inconclusive; [ ] = remark or other dose. % is set by controls: 0 for no effect and ±100 for the full control effect; potency is the fitted concentration of half-maximal effect. The list is partial; rates above refer to the full screens.

NPR1 antag,smiles
-2%[70.6 µM],COc1ccccc1-c1cn2c(n1)CO[C@@H](CNC(C)C)C2
-17%,CN(Cc1cc(C[C@H]2CNCC[C@H]2CC(=O)N2CCN(c3ccccc3)CC2)no1)c1ccccc1
0%,CN1Cc2cccn2CC1CNC(=O)c1ccoc1 (centres undefined)
5%[70.6 µM],Cc1ccc(F)cc1-c1cccc(CCOc2cnc3c(ccn3CC(=O)O)c2)c1
2%,CCc1ccccc1NC(=O)C1CCN(C(=O)c2ncn3c2COC(c2ccc(F)cc2)C3)CC1 (centres undefined)
-6%,CCCC1(CO)CCCN(Cc2cc(OC)c(OC)cc2F)C1 (centres undefined)
-17%,Cc1ccsc1C(=O)N1CCCC(c2noc(COc3ccccc3)n2)C1 (centres undefined)
18µM*,CCCCNc1nc2c(s1)C[C@]1(C)CC[C@@H]3[C@H](OC(=O)[C@H]3C)[C@H]1[C@@H]2C
1%,CCCN(CCO)C(=O)CC1C(=O)NCCN1C1Cc2ccccc2C1 (centres undefined)
-5%,COCCN1CCCN(C(=O)c2ccoc2)c2ccccc21
-14%,CCN1c2cc(C(=O)Nc3cccc(OC)c3)ccc2C(=O)N2CCCCC21 (centres undefined)
0%,Cc1cc(C)c(NC(=O)Cn2cccc2-c2nc(-c3ccccc3)no2)c(C)c1
-3%,O=C(Cc1c(F)cccc1Cl)N[C@@H]1CCOC[C@H]1OCCO
-18%,CCN(CC)c1cc(CCC(=O)NCc2ccc(N3CCOCC3)cc2)ccn1
-7%,COc1cc(Cl)c(C)cc1NC(=O)CN1C(=O)NC2(CCOCC2)C1=O
-8%[70.6 µM],CC1(COCC2CC2)COc2ccc(C(=O)NCc3cccc(F)c3)cc2N1 (centres undefined)
-2%,CC(=O)NCCc1ncc(C)n1C1CCC1
3%,N[C@@H]1CC[C@H](C(=O)N2CCN(c3ccncc3)CC2)C1
-7%,CNC(=O)N1CCc2c(sc3ncnc(N(C)C)c23)C1
-24%,COc1cccc(-c2noc(COC(=O)C3=CN(Cc4ccccc4)S(=O)(=O)N=C3C)n2)c1
2%,COC[C@@H]1CN(c2cnccn2)C[C@H]1C(=O)NCc1ccccn1
-9%,CCc1ccccc1NC(=O)N1CCC(n2cnnc2C2CC2)C1 (centres undefined)
21%,COc1ccc(NC(=O)Cn2ccn3nc4c(c3c2=O)CCCCC4)cc1Cl
1%,Cc1ccc(S(=O)(=O)N[C@@H]2CN(C)C[C@H]2CN(C)C)cc1F
?,Cc1ccc(CN2CCN(c3nc4ccccc4o3)CC2CCO)cc1 (centres undefined)
-1%,CCOc1cccc(CN2CCC(C)(c3noc(C4CCOCC4)n3)CC2)c1
9%,COc1ccc(C(=O)N2CCCN(S(=O)(=O)c3ccccc3)CCC(=O)NCC2)cc1
-9%,Cc1cc(C)n(CCC(=O)N2CCC(Cc3noc(C4CC4)n3)C2)n1 (centres undefined)
-1%,CNC(=O)[C@@H]1CN(C(=O)CCc2cccc(OC)c2)C[C@H]1CO
-1%,CCS(=O)(=O)c1ncc(CN(C)Cc2ccc3nonc3c2)n1CCc1ccccc1
-4%,CC(C)N1C[C@H](C(=O)N2CCOCC2)[C@H](C(=O)O)C1
7%,N#Cc1ccc(S(=O)(=O)N2CCc3c(nc(-c4ccc(F)cc4)[nH]c3=O)C2)cc1
1%,COc1ccc(OCc2nc(C)c(CCO)c(=O)n2CC(=O)Nc2cccc(SC)c2)cc1
1%,Cc1ccc(C2Cn3nnc(C(=O)N4CCC(C(=O)NCc5ccc(Cl)cc5)CC4)c3CO2)cc1 (centres undefined)
3%[70.6 µM],CC(=O)N1CCCN(CC[C@H]2CN(C(=O)c3ccccc3)CC[C@H]2CC(=O)O)CC1
6%,CN1CC2(CCN(Cc3ccccc3)CC2)CC1C(=O)N1CCOCC1 (centres undefined)
-15%,O=C(Nc1cccc(F)c1)[C@@H]1C[C@@H](c2cccc(C(F)(F)F)c2)N(CC2CCOCC2)C1
11%,COc1cc(CNC(=O)CC2CCOCC2)cc(OC)c1
-18%,O=C1C(N2CCN(S(=O)(=O)c3cccc(F)c3)CC2)CCN1CCc1ccccc1 (centres undefined)
2%,O=C(NC[C@H]1O[C@@H](CO)[C@@H](O)[C@H]1N1CCN(c2cccc(C(F)(F)F)c2)CC1)Nc1ccccc1
-2%,Cc1ccccc1C(=O)N1CC(c2nnc(-c3ccncc3)o2)C2(CCOCC2)C1 (centres undefined)
2%[70.6 µM],O=C1CCCCCN1C1CCN(Cc2cccc3ccccc23)CC1
0%,CCCCOc1ccc(C(=O)N2CCC(c3n[nH]c(=O)n3-c3ccccc3)CC2)cc1
3%,CCCS(=O)(=O)N1CCC(c2noc(-c3cnccn3)n2)C1 (centres undefined)
0%,Cc1ccsc1C(=O)NCCc1noc(-c2cccnc2)n1
-13%,CC(C)n1cc(-c2cc(C(=O)N3CCC(C)(C)C3)c3ccc(F)cc3n2)cn1
-5%,CCC1(N2CCN(C(=O)Nc3cc(C)ccc3OC)CC2)CCN(C(=O)C(C)C)C1 (centres undefined)
5%,COCCN1C(=O)c2cccn2CC1CNC(=O)c1ccccc1F (centres undefined)
-6%[70.6 µM],c1ccc(Oc2ccc(Nc3ncc(-c4cncnc4)c4c3OCC4)cc2)cc1
3%,Cc1noc([C@H]2CCN(C(=O)NCc3ccc(F)cc3)C[C@H]2NC(=O)C2CCOCC2)n1
13µM*,O=S(=O)(N[C@H]1CO[C@H]2[C@@H]1OC[C@@H]2Nc1nccc(-c2ccc3c(c2)OCO3)n1)c1ccc2ccccc2c1
7.1µM*,CCc1[nH]c2ccc(CNC(=O)Cc3cnc4c(C)cccn34)cc2c1C
4%,Cc1cccc2[nH]c(CNC(=O)C3CCC(=O)N(CC4CCCCC4)C3)nc12 (centres undefined)
3%,COc1ccc(CC(=O)N2CCC(c3n[nH]c(=O)n3Cc3ccc(F)cc3)CC2)cc1
7%,COc1cccc(NC(=O)CCC2CCN(C(=O)C(C)n3cncn3)CC2)c1 (centres undefined)
28µM*,COc1ccc(-c2cc(C[C@@H]3CC[C@H](O)[C@@H](CNCc4ccccc4OC)O3)no2)cc1
-18%[70.6 µM],Cc1ccc(CN2C[C@H]3CN(Cc4cccc(OC(F)(F)F)c4)CCN3C2=O)cc1
-16%[70.6 µM],FC(F)(F)c1ccc2c(c1)nc1n2[C@@H](CNCc2ccccc2)COC1
1%,CCOC(=O)CCNC(=O)N1CCCOCCNC(=O)[C@@H]2CCC[C@@H]21
-1%,COc1ccc(NC(=O)CCc2cc3cc(C)ccc3[nH]c2=O)c(OC)c1

An excerpt of these results, with each value named.
> Cc1ccc(C2Cn3nnc(C(=O)N4CCC(C(=O)NCc5ccc(Cl)cc5)CC4)c3CO2)cc1 (centres undefined)
- NPR1 antag: 1%
> COc1cccc(NC(=O)CCC2CCN(C(=O)C(C)n3cncn3)CC2)c1 (centres undefined)
- NPR1 antag: 7%
> COc1ccc(OCc2nc(C)c(CCO)c(=O)n2CC(=O)Nc2cccc(SC)c2)cc1
- NPR1 antag: 1%
> O=S(=O)(N[C@H]1CO[C@H]2[C@@H]1OC[C@@H]2Nc1nccc(-c2ccc3c(c2)OCO3)n1)c1ccc2ccccc2c1
- NPR1 antag: 13µM*

Next part
NPR1 antag,smiles
-1%,Cc1nc([C@H]2CCN(Cc3cccc(C#N)c3)C[C@H]2NC(=O)C2CC2)n[nH]1
0%,Cc1ccccc1NC(=O)Cn1c(C)cc2nc3n(c(=O)c21)CCCCC3
3%,NC1CCCCN(C(=O)c2csc(Cc3ccccc3)n2)C1 (centres undefined)
0%,Cc1noc(C)c1CO[C@@H]1CCOC[C@H]1NC(=O)c1ccc2c(c1)CCCO2
-19%,O=C(c1cc(Cl)ccc1F)N1CCCN(c2cc(-c3ccccc3)[nH]n2)CC1
-4%,O=C(NCC1CCNCC1)c1ccc(C2CCNC2)cc1 (centres undefined)
6%,OC1CCOC2(CCN(Cc3ccc(OC(F)(F)F)cc3)CC2)C1 (centres undefined)
-25%,CCN1c2cc(C(=O)Nc3ccc(SC)cc3)ccc2C(=O)N2CCCCC21 (centres undefined)
-2%[70.6 µM],O=C(c1cccc(F)c1)N1CCN2C(=O)N(Cc3ccccc3)C(=O)[C@H]2C1
-4%,CCC(=O)N(C1CCOCC1)C1CCN(C(=O)c2ccncc2)CC1
-28%,COc1cccc(C(=O)NC2CCN(c3cc(-c4ccccc4)[nH]n3)CC2)c1OC
-1%,Cc1nncn1C1CCN(S(=O)(=O)c2ccccc2Cl)CC1
3%,COc1ccc(CN2CCc3nc(N(C)C)[nH]c(=O)c3CC2)cc1CN1CCOCC1
1%,O=C(NCCC1CCN(C(=O)Nc2cc(F)cc(F)c2)CC1)c1cccs1
-1%,O=C(NCc1csc(Cc2ccccc2)n1)C1NCCc2[nH]cnc21 (centres undefined)
6%[70.6 µM],O=C(c1ncccn1)N1CCNc2cnc(Nc3ccc(-n4ccnc4)cc3)nc2C1
-20%,COc1cccc(CN2C[C@@H](COCC3CC3)[C@H](c3ccncc3)C2)n1
1%[70.6 µM],O=C(C1CCCC1)N1CCC(Oc2cnc3c(ccn3-c3cncnc3)c2)CC1
3%,CN(Cc1cccnc1)c1nc2c(c(=O)[nH]1)CCN(Cc1cccc(C#N)c1)CC2
?,O=C(CN1C(=O)C(c2ccccc2)=NC12CCCC2)Nc1ccc(C(F)(F)F)cc1
4%,COc1ccc(C(=O)N2CCC(n3cc(C(C)(C)C)nn3)CC2)c(OC)n1
4%[70.6 µM],Cc1ccccc1-c1nccc2c(=O)cc(-c3cccnc3)oc12
?,CCc1ccc(C(=O)N2CCC3(CC2)N=C(c2ccc(C)cc2)NO3)cc1
-21%[70.6 µM],COc1ccc([C@H]2C[C@@H](O)[C@@H](O)[C@@H]2NCc2ccc(Cl)cc2)cc1
5%,COc1cc(=O)n2c(c1C(=O)NCc1ccc(F)cc1Cl)CCCC2
4%,COc1ncccc1C(=O)N1CCCC(c2nnc(Cn3ccnc3)n2C)C1 (centres undefined)
-7%,O=C(CCC1CCCN(S(=O)(=O)c2ccccc2)C1)N1CCc2ccccc2C1 (centres undefined)
3%,Cc1cnccc1CN(C)Cc1cc2n(n1)CCNC2
-6%,O=C(COc1ccc(-c2nnc3n2CCCC3)cc1)NCc1ccccc1Br
0%,O=C(CCC1CCCC1)NCC(=O)N1CCCCCCNC(=O)CC1c1ccccc1 (centres undefined)

Part of the list above, with bars between the fields:
Structure | NPR1 antag
COc1cccc(CN2C[C@@H](COCC3CC3)[C@H](c3ccncc3)C2)n1 | -20%
O=C(C1CCCC1)N1CCC(Oc2cnc3c(ccn3-c3cncnc3)c2)CC1 | 1%[70.6 µM]
CN(Cc1cccnc1)c1nc2c(c(=O)[nH]1)CCN(Cc1cccc(C#N)c1)CC2 | 3%
O=C(CN1C(=O)C(c2ccccc2)=NC12CCCC2)Nc1ccc(C(F)(F)F)cc1 | ?

The list continues.
NPR1 antag,smiles
2%,O=C(c1ccccc1-c1nn[nH]n1)N1CCN(CCN2CCOCC2)CC1
1%[70.6 µM],COCCn1c(=O)c2c(n1Cc1ccccc1)CN(Cc1ccccn1)CC2
-18%,CCOC(=O)c1cccc(NC(=O)c2ccc3c(c2)N(C)C2CCCCCN2C3=O)c1 (centres undefined)
4%,CN1C(=O)CCC2(CNC(=O)NC3CCCC3)CCC=C12 (centres undefined)
-1%,CN(CCO)C[C@@H]1CN(C(=O)CCc2nc3ccc(F)cc3[nH]2)C[C@@H]1CO
2%[70.6 µM],O=c1ncn(CC2CC2)c2ccc(-c3ccc4c(c3)OCO4)nc12
3%,Cc1cccc(C(=O)N2CCCC(CO)CCNC(=O)CC2)c1 (centres undefined)
2%,COCc1nncn1C1CCN(C(=O)c2cccc(OC)c2)CC1
-2%,CC(NC(=O)c1ccc2cccc(F)c2n1)c1ccccc1-n1cccn1 (centres undefined)
?,Cc1ccc(C(=O)N2CCCN(c3cc(-c4ccc(Br)cc4)[nH]n3)CC2)cn1
?,O=S(=O)(c1ccccc1)N1CCCC(c2nc(CCOc3ccc(F)cc3)no2)C1 (centres undefined)
2%,CCOc1ccc(-c2cc3c(=O)n(CCNC(=O)c4ccc(Cl)cc4)ccn3n2)cc1
2%[70.6 µM],Cn1cc(CN2CC[C@H](c3nnc(-c4cccnc4)o3)C2)c2ccccc21
5%[70.6 µM],CN1c2cccnc2CN(Cc2ccc(C(F)(F)F)cc2)CC[C@H]1CO
8%,Cc1noc(-c2cn(C3CCN(C(=O)c4ccc(C)c(C)c4)CC3)nn2)n1
-2%,COC[C@@H]1CN(C(=O)c2ccc(C#N)cc2)C[C@H]1c1ccncc1
2%,COc1ccc(CCNC(=O)[C@H]2CCC[C@H]2NC(=O)c2cnc(C)cn2)cc1OC
-19%[70.6 µM],CNc1ccc(-c2noc([C@@H]3CCCN3Cc3cnc4ccccc4c3)n2)cn1
-19%,CN1C[C@@H](C(=O)Nc2ccccc2)[C@H](C2CCNCC2)C1
0%[70.6 µM],O=C(O)CCCC(=O)N[C@H]1CO[C@H]2[C@@H]1OC[C@@H]2Nc1nccc(-c2cccc(F)c2)n1
0%[70.6 µM],Cc1ccc(-c2nnc3ccc(NCCN(C)C)nn23)nc1
0%[70.6 µM],Cc1ccc(S(=O)(=O)N(C)Cc2ccccc2C(F)(F)F)cc1
0%,COCCCN(CCC(=O)N1CCC(C)CC1)C(=O)c1cc(C)oc1C
3%,O=C(NC1CCCCC1)[C@@H]1C[C@@H](O)CN1C1CCN(C(=O)c2ccoc2)CC1
